Autofluor counter = counter-screen for toxin protease inhibitors: compound fluorescence; fluorescence intensity (test concentration not listed); compound autofluorescence counterscreen, microsphere flow cytometry; stronger effect = higher value; hit rate 3.1% among 360,000;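 active means at least 3 SD above the mean of all compounds, about 16000 in these data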;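 further: 100 nL of 1 mM stock went into each well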
* marks the source's active call; other numbers are inactive results. An excerpt; the hit share may differ from the screen's.

compound	Autofluor counter
NC(c1ccccc1)c1csc(Nc2ccc(S(N)(=O)=O)cc2)n1 (configuration not stated)	3556
CC(=O)N1CCc2cc(NC(=O)C3(C)CCN3Cc3ccccc3OC(F)F)ccc21 (configuration not stated)	3360
CC1(C(=O)NS(=O)(=O)c2ccc(Cl)cc2)CCN1C(=O)CC1CCCC1 (configuration not stated)	3023
CCCCN1C(=O)C(CC(=O)NCc2cccc3ccccc23)CC(C(=O)N(C(C)C)C(C)C)=C1C (configuration not stated)	5283
O=C(c1[nH]c(C(F)(F)F)nc1-c1ccccc1)N1CCN(c2ccccn2)CC1	5860
O=S(=O)(c1ccccc1)N1CC2CC(Br)C(Br)CC21 (configuration not stated)	2857
O=C1C(Sc2ccccc2)=C[C@@]2(O)CC[C@@H](O)[C@]1(Sc1ccccc1)[C@H]2O	6223
O=C(CCNC(=O)c1ccc(Cl)cc1)Nc1cc(C(F)(F)F)ccc1N1CCOCC1	3892
Cn1c(N)c(C(=O)CN2CCN(S(=O)(=O)c3ccccc3C#N)CC2)c(=O)n(C)c1=O	3402
COCCNc1oc(/C=C/c2cccc(OC)c2)nc1S(=O)(=O)c1ccccc1	2985
CCOC(=O)C1(C)CCCN1C(=O)c1ccc2ccccc2c1 (configuration not stated)	3930
CC(O)C(NS(=O)(=O)c1ccc(Cl)cc1)C(=O)OCCOc1ccc(F)cc1 (configuration not stated)	3909
CC=C1OC(n2cnc3c(N)ncnc32)C(O)C1O (configuration not stated)	6168
CCN(CC)c1ncnc2c1ncn2[C@H]1CN(Cc2ccc(Cl)cc2)C[C@@H](CO)O1	3129
O=C(Nc1ccccc1Cl)c1cc(C2CCCN(C(=O)OCCF)C2)on1 (configuration not stated)	3936
Cn1c(=O)c2cc(NC(=O)Cc3cccnc3)ccc2n1-c1ccc2ccccc2c1	3431
COCCCN1C(=O)C(CC(=O)NCCc2ccccn2)CC(C(=O)N2CCCCCC2)=C1C (configuration not stated)	6203
COC(=O)[C@]12CCCCC=C1N(CCC1=CCCCC1)C(=O)[C@H](CC(=O)NCCCCc1ccccc1)C2	4462
COc1cc(Cn2c3ccc(NC(=O)CCc4ccccc4)cc3c(=O)n2C)ccc1F	2909
Cc1cc(Br)cn2c(Cc3ccccc3)c(-c3cccc(Cl)c3)nc12	4117
CC/C(=N\NC(=O)c1cc(C)oc1C)c1ccc(OC(F)F)cc1	2819
COc1cc(OCc2ccccc2)c(CC(=O)O)c([N+](=O)[O-])c1	3628
C=CCC1(CC=C)CCCN1C(=O)C1CCC(=O)N(Cc2ccc(Cl)cc2)C1 (configuration not stated)	4494
CC(C)[C@H](NC(=O)c1ccco1)C(=O)Nc1ccc(N2CCCCCC2)cc1	3947
CC(=O)Nc1ccc(S(=O)(=O)N[C@@H](C)C(=O)OCC(=O)c2ccc(Br)s2)cc1	3498
COc1ccc(S(=O)(=O)N(C)C[C@H]2Oc3ncc(Br)cc3C(=O)N([C@@H](C)CO)C[C@@H]2C)cc1	3896
O=C(C[C@@H]1C[C@@H]2c3cc(NS(=O)(=O)c4ccc(F)cc4)ccc3O[C@@H]2[C@H](CO)O1)NCc1ccc(Oc2ccccc2)cc1	5567
COc1cccc(NC(=O)C2(C)CCN2Cc2ccccc2Cl)c1 (configuration not stated)	3876
CC(C)(C)CNC(=O)C1(C)CCN1C(=O)C1(c2ccccc2)CC1 (configuration not stated)	4029
COc1cccc(C(NC(C)=O)c2nc(-c3ccc4c(c3)OCO4)cs2)c1 (configuration not stated)	4156
Cc1ccc(CN2C(=O)C(F)(F)Oc3ccccc32)cc1	3044
O=S1(=O)CC(N2CC=CC2)CN1Cc1cn(Cc2cccc(Cl)c2)nn1 (configuration not stated)	5813
COc1cccc(NC(=O)CSCc2nc3sc(C)c(C)c3c(=O)[nH]2)c1	3885
COc1ccc(C(=O)N/C(=C\c2cn(S(=O)(=O)N(C)C)c3ccccc23)C(=O)N2CCCC2)cc1	4021
Clc1cccc(Cc2c(-c3ccco3)nc3ccc(Br)cn23)c1	5555
COc1ccc(CNC(=O)c2ccc(-n3cncn3)c3ccoc23)cc1OC	2882
Cc1c(C(=O)NCC2CC2)sc(=O)n1Cc1cccc(F)c1	5240
CN(C1CCCCC1)S(=O)(=O)c1ccc2c(c1)c(=O)c(C(=O)O)cn2C	3698
CCCS(=O)(=O)NC(=O)C1(C)CCCN(C(=O)CCc2cccs2)C1 (configuration not stated)	3843
O=C(CC[C@H]1O[C@@H](n2ccc(=O)[nH]c2=O)[C@H](O)[C@@H]1O)N[C@H](Cc1ccccc1)C(=O)NCCCc1ccccc1	6231
Cc1ccsc1C(=O)N1CCCC1(C)C(=O)NCC(C)C (configuration not stated)	3689
CCN(CC)c1cc2c(c3c1ccn3C)C1CCC2C1 (configuration not stated)	4161
CCOc1ccc(/C(O)=C2\C(=O)C(=O)N(c3ccccn3)C2c2ccccc2F)c(C)c1 (configuration not stated)	3503
Cc1ccc(-c2nc3c4ccccc4ccn3c2Cc2ccccc2C(F)(F)F)cc1	6043
C[C@@H](NC(=O)c1ncn2c1c(=O)[nH]c1ccc(Br)cc12)c1ccccc1	4637
CC1=C(C(=O)N(C)C)CC(CC(=O)NC2CCCCC2)C(=O)N1CCCN1CCCC1=O (configuration not stated)	2884
Cc1ccc(-[n+]2c(Cc3nn(-c4ccccc4)c(C)[n+]3-c3ccc(C)cc3)nn(-c3ccccc3)c2C)cc1	4097
N#CC1(NC(=O)CSc2nnc(C3CC3)n2N)CCCCC1	3925
COc1ccc(C(NC(=O)C2CCN(CCOc3ccc(Cl)cc3Cl)CC2)c2ccccn2)cc1 (configuration not stated)	3725
Cc1cc(C)c(NS(=O)(=O)c2ccccc2)c(C)n1	2878
Cc1ccc(C)c(NC(=O)C2(C)CCCN2C(=O)C(C)C)c1 (configuration not stated)	4001
COc1ccc(CCNCc2cc(OC)cc(OC)c2)cc1	3478
CN1CCC(NC(=O)C2(C)CCN2Cc2ccc3ccccc3c2)CC1 (configuration not stated)	4633
COC(=O)[C@H]1C[C@H](OC(=O)NCc2ccccc2)[C@@]2(O)CN(S(=O)(=O)c3ccc(C)cc3)CC2[C@H]1C(=O)OC (some centres not stated)	3652
COC(=O)c1c(NC(=O)COC(=O)CNC(=O)c2cccc(OC(F)F)c2)sc(C)c1C	3948
CCCn1cnnc1CNC(=O)[C@H]1O[C@@H](n2ccc(=O)[nH]c2=O)[C@H](O)[C@@H]1O	6287
COc1ccc(-c2csc(C(C)(O)c3ccncc3)n2)cc1OC (configuration not stated)	3654
CCc1nc2ccc(C(=O)NCc3ccc4c(c3)OCO4)cn2c1N(C)C(=O)Cc1ccccc1	3683
COc1ccc(CCNC(=O)CC(=O)N/N=C\c2ccc(OCC(N)=O)cc2)cc1OC	3756
CCCNC(=O)C1(C)CCCN(Cc2ccc(-n3ccnc3)cc2)C1 (configuration not stated)	3652

Following part:
compound	Autofluor counter
CCCCNC(=O)C1(C)CCCCN1C(=O)c1cccc(OC(F)(F)F)c1 (configuration not stated)	2755
O=C(Nc1c(-c2ccc(Cl)cc2)[nH][nH]c1=O)c1ccccc1Cl	4221
CCCCN(C(C)=O)c1c(CC)nc2ccc(C(=O)NCCOc3ccc(OC)cc3)cn12	2785
CNC(=O)OC1CC2CC1[C@H]1CCCCN1C2=O (some centres not stated)	5895
CC(C)C[C@@H](CN1CCC[C@H]1CN1C(=O)C(=O)NC[C@@H]1Cc1ccccc1)N1C[C@H](Cc2ccc(O)cc2)N(CC2CCCCC2)C(=O)C1=O	6075
CN1CCN(C(=O)c2cc3c(c(-c4cccc(Br)c4)n2)[C@H](CCO)N(S(=O)C(C)(C)C)C3)CC1 (some centres not stated)	6198
CC(=O)Nc1ccc(CN2C(=O)C(Cc3ccccc3)ON=C2c2ncccc2C)cc1 (configuration not stated)	5050
CCOC(=O)C1=C(C)NC(C)=C(C(=O)OCC)C1c1ccncc1	3874
CN(C)CCNc1ncnc2c1ncn2[C@H]1CN(Cc2ccccc2)C[C@@H](CO)O1	4135
CC(C)n1nnnc1C1c2ccccc2C(=O)N1Cc1cccs1 (configuration not stated)	4217
COc1ccc(S(=O)(=O)Nc2ccc3c(c2)C(=O)N([C@@H](C)CO)C[C@@H](C)[C@H](CN(C)C(=O)CCCN(C)C)OCCCC[C@H](C)O3)cc1	3711
CC1CC(C)CN(S(=O)(=O)c2ccc(F)c(C(=O)NC3CCCCC3C)c2)C1 (configuration not stated)	3652
CC(C)N1C(=O)NC2NC(=O)N(C(C)C)C21 (configuration not stated)	6007
CC1(C(=O)NS(=O)(=O)c2cccc(Cl)c2)CCN1C(=O)Cc1ccc(Cl)cc1Cl (configuration not stated)	3729
CCN(CC)c1ncnc2c1ncn2[C@H]1CN(Cc2ccccc2)C[C@@H](COC(C)=O)O1	3565
CCCC(=O)N1CCC1(C)C(=O)Nc1ccc(-n2cncn2)cc1 (configuration not stated)	4101
COc1cc(C=C2CCCC(=Cc3ccc(OCC4CO4)c(OC)c3)C2=O)ccc1OCC1CO1 (configuration not stated)	4192
CCCCCc1c(-c2ccccc2OC)ncn1CCc1ccccc1OC	6192
O=C(O)CCC1C(=O)NC(=O)CC1c1ccccc1 (configuration not stated)	3965
Cc1ccc2c(c1)CO[C@]21O[C@H](CCO)C[C@H](O)[C@H]1O	2981

Nothing new here: an excerpt of the list.
compound	Autofluor counter
CCCCNC(=O)C1(C)CCCCN1C(=O)c1cccc(OC(F)(F)F)c1 (configuration not stated)	2755
O=C(Nc1c(-c2ccc(Cl)cc2)[nH][nH]c1=O)c1ccccc1Cl	4221
CCCCN(C(C)=O)c1c(CC)nc2ccc(C(=O)NCCOc3ccc(OC)cc3)cn12	2785
CNC(=O)OC1CC2CC1[C@H]1CCCCN1C2=O (some centres not stated)	5895
CC(C)C[C@@H](CN1CCC[C@H]1CN1C(=O)C(=O)NC[C@@H]1Cc1ccccc1)N1C[C@H](Cc2ccc(O)cc2)N(CC2CCCCC2)C(=O)C1=O	6075

The results go on.
compound	Autofluor counter
Cc1ccc([C@@H]2CC(=O)[C@@H]3CN(S(=O)(=O)c4ccc(C)cc4)[C@H](c4cccc(Cl)c4)C[C@@H]3N2S(=O)(=O)c2ccc(Cl)cc2)cc1	3026
O=C(CC[C@H]1O[C@@H](n2cnc3c(NC(=O)c4ccccc4)ncnc32)[C@H](O)[C@@H]1O)NCc1ccc(OC(F)(F)F)cc1	4319
O=C(Cc1cccc2c(=O)cc(-c3ccccc3)oc12)OCCN1CCOCC1	4472
CCCCN1C(=O)C(CC(=O)NCC2CCCCC2)CC(C(=O)N(C)C)=C1C (configuration not stated)	3906
CCn1nc(C(=O)Nc2ccc3c(c2)OCCO3)c2ccccc2c1=O	3213
Cc1ccc2nc(-c3cccc(Cl)c3)c(Cc3ccccc3)n2c1	5914
CC(=O)N1CCN(S(=O)(=O)c2cccc(C(=O)OCc3ccc(F)cc3)c2)CC1	3846
CCC(c1nnnn1-c1c(C)cccc1C)N1CCN(c2ccccn2)CC1 (configuration not stated)	6499
CNc1cc(-c2ccc(CC#N)cc2)ncn1	2996
CC(C)N1CCC(C)(C(=O)Nc2cccc(Oc3ccccc3)c2)C1 (configuration not stated)	3851
COc1ccc(CNC(=O)OC23CN(C(=O)OC(C)C)N(C(=O)OC(C)C)CC2(O)CN(S(=O)(=O)c2ccc(C)cc2)C3)cc1OC (configuration not stated)	3745
CC1(C(=O)NS(=O)(=O)c2ccccc2Cl)CCN1C(=O)Cc1cccc2ccccc12 (configuration not stated)	3565
CC(C)c1ccc(NC(=O)Nc2nc(C(N)C3CCCCC3)cs2)cc1 (configuration not stated)	3506
CN1OC[C@@H]2CN(C(=O)c3ccc(-c4ccccc4)cc3)[C@H](c3ccc(-c4cccc(F)c4)cc3)C[C@@H]21	3900
C/C=C/c1cccc(-c2nc(C(=O)NC3CCCC3)cc3c2[C@@H](CCO)N(S(=O)C(C)(C)C)C3)c1 (some centres not stated)	6731
O=C(/C=C/[C@H]1O[C@@H](n2ccc(=O)[nH]c2=O)[C@H](O)[C@@H]1O)NCc1ccco1	6141
CCc1nc2ccc(C(=O)Nc3cccc(OC)c3)cn2c1N(CCC(C)C)CCN(C)C	3936
CCOc1ccc(NC(=O)CSc2nc3cc(C(=O)NCC4CCCO4)ccc3c(=O)n2CC2CCCO2)cc1 (configuration not stated)	3169
CCOC(=O)C12C(=O)OCC1C2c1ccccc1 (configuration not stated)	5231
COc1ccc(-c2csc(C(O)c3ccc(F)cc3)n2)cc1 (configuration not stated)	3642
C[C@H](NC(=O)c1ccccc1)C(=O)OCC(=O)Nc1ccc(Cl)cn1	3539
O=C(NN=Cc1ccc(O)c(O)c1)c1ccccc1	5449
CCCCNC(=O)C1(C)CCN1C(=O)c1cc(C)n(C(C)(C)C)n1 (configuration not stated)	3492
Cc1ccc(NC(=O)CSC(C)C(=O)OCc2cc(=O)oc3cc(O)ccc23)cc1 (configuration not stated)	2791
CC1(C(=O)NS(=O)(=O)c2ccc(C#N)cc2)CCN1C(=O)CC1CC1 (configuration not stated)	3611

Looked up one by one from above:
compound	Autofluor counter
Cc1ccc(NC(=O)CSC(C)C(=O)OCc2cc(=O)oc3cc(O)ccc23)cc1 (configuration not stated)	2791
C[C@H](NC(=O)c1ccccc1)C(=O)OCC(=O)Nc1ccc(Cl)cn1	3539

Sorted by molecular weight (descending): five of the compounds above.
compound	Autofluor counter
CCOc1ccc(NC(=O)CSc2nc3cc(C(=O)NCC4CCCO4)ccc3c(=O)n2CC2CCCO2)cc1 (configuration not stated)	3169
Cc1ccc(NC(=O)CSC(C)C(=O)OCc2cc(=O)oc3cc(O)ccc23)cc1 (configuration not stated)	2791
C[C@H](NC(=O)c1ccccc1)C(=O)OCC(=O)Nc1ccc(Cl)cn1	3539
COc1ccc(-c2csc(C(O)c3ccc(F)cc3)n2)cc1 (configuration not stated)	3642
O=C(NN=Cc1ccc(O)c(O)c1)c1ccccc1	5449
